Compound activity: PubChem BioAssay, ICCB-Longwood Screening Facility, Harvard Medical School
AID504770: E. coli YBA685 growth inhibition, screen for V. cholerae RctB inhibitors; z-score (no concentration beside the values); 130,000 tested, 0.27% active; E. coli YBA685 rctB-dependent plasmid, OD600 growth, 3 h; stronger effect = lower value;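 active means z-score under -2 on both plates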;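 further: wells of about 30 µL received 100 nL stock; score is relative to mean and SD of the test wells; the first replicate is given; strong numbers were not always called active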
Ba CapD inh: inhibitors of Bacillus anthracis CapD enzyme; purified CapD enzyme, fluorescence intensity read-out; stronger effect = lower value; some hits fall short of the stated cut; z-score (no concentration beside the values); 140,000 tested, 0.23% active; AID 492967;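 active means z-score under -4 in either of two replicates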;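 further: stock transfer was 100 nL into about 40 µL; score is relative to mean and spread of the plate; one replicate is shown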
* = called active by the depositor; nt = no result given.

SMILES	AID504770	Ba CapD inh
Cc1noc(C)c1COc1ccc(C(=O)NCC2COc3ccccc3O2)cc1 (centres undefined)	-0.3	nt
COC(=O)C1=CN(Cc2ccc(OC)cc2)C=C(C(=O)OC)C1c1cc(OC)c(OC)c(OC)c1	nt	63.7
Clc1cccc(Cl)c1NC1=NCCC1	-0.75	-0.945
CNc1nn(-c2cccc(Cl)c2)nc1N	2	2.8
CC12c3ccccc3C(c3ccccc31)C1C(=O)N(c3ccc(Cl)c(C(=O)O)c3)C(=O)C12 (centres undefined)	nt	-0.545
CCSc1nnc2c(n1)OC(/C(C)=C/c1ccccc1)Nc1ccccc1-2 (centres undefined)	nt	-0.305
COc1ccc(S(=O)(=O)N2CC=C(c3c(C)n(CC(=O)N4CCCC4)c4ccccc34)CC2)cc1OC	0.55	-0.91
O=C(/C=N/O)Nc1cc(C(F)(F)F)cc(C(F)(F)F)c1	-0.75	-0.125
O=C1c2ccccc2C(=O)N1CNc1ccccc1	-0.35	0.13
COc1ccc(-n2cc(C(=O)NCCCN3CCCCC3)c3ccccc3c2=O)cc1	-0.25	0.69
O=S(=O)(Nc1ccc(Cl)cc1)c1ccccc1	0.5	-0.715
CC(C)Cn1c(O)c(C2=c3ccccc3=NC2=O)c2ccccc21	0.35	-1.55

A draw from above in order of SMILES length, lowest first.
SMILES	AID504770	Ba CapD inh
CNc1nn(-c2cccc(Cl)c2)nc1N	2	2.8
O=C(/C=N/O)Nc1cc(C(F)(F)F)cc(C(F)(F)F)c1	-0.75	-0.125
CC12c3ccccc3C(c3ccccc31)C1C(=O)N(c3ccc(Cl)c(C(=O)O)c3)C(=O)C12 (centres undefined)	nt	-0.545

Some of the entries above in a different format.
structure | AID504770 | Ba CapD inh
Clc1cccc(Cl)c1NC1=NCCC1 | -0.75 | -0.945
CCSc1nnc2c(n1)OC(/C(C)=C/c1ccccc1)Nc1ccccc1-2 (centres undefined) | nt | -0.305
O=S(=O)(Nc1ccc(Cl)cc1)c1ccccc1 | 0.5 | -0.715

Next structures follow.
SMILES	AID504770	Ba CapD inh
Cc1ccc2[nH]c(=O)c(CNCCCN(C)C)cc2c1	-0.6	nt
CC(NC(=O)COc1cccc(Cl)c1)c1ccccc1 (centres undefined)	0.3	-0.36
O=C(O)c1ccc2c(c1)sc1nc(-c3ccc(F)cc3)cn12	0.85	2.04
COc1cccc(-c2nc3cc(C)ccc3o2)c1	1.7	nt
Nc1snnc1-c1ccc(Cl)cc1	-1.45	-0.54
COCCn1cc(C(=O)c2ccccc2O)cc(C#N)c1=O	-0.1	nt
Cc1cc(C)c(C(=O)NCCNc2ccc(C(F)(F)F)cc2[N+](=O)[O-])c(C)c1	nt	-0.715
CC1(C)Cc2ccccc2C(NN=C2CCCCC2)=N1	0.05	nt
CCOC(=O)C1=NN(c2ccc(Br)cc2)C2(S1)c1ccccc1C(c1ccc(Br)cc1)=NN2c1ccccc1 (centres undefined)	nt	-0.835
O=C1c2ccccc2C(=O)N1CNc1ccccc1C1CC1	-0.5	nt
COCCCCOC(=O)NCc1ccc(S(N)(=O)=O)cc1	nt	0.075
CCc1ccnc(NS(=O)(=O)c2ccc3c(c2)CCO3)c1	-0.25	2.12
COc1ccc(OC)c(S(=O)(=O)N2CCn3cccc3C2c2ccc(Cl)cc2Cl)c1 (centres undefined)	-1	nt
O=S(=O)(Nc1ccc2c(c1)N(S(=O)(=O)c1cccs1)CCC2)c1cccs1	-0.65	nt
COc1nn(CC(=O)Nc2sc3c(c2C#N)CCC3)cc1[N+](=O)[O-]	nt	-0.425
O=C(CSc1nncs1)c1cccs1	-2.85	nt
O=C1NC(c2ccc(OCc3ccccc3)cc2)Nc2sc3c(c21)CCCC3 (centres undefined)	nt	-0.405
COc1cc(OC)cc(C2C(C(=O)c3ccccc3)N3c4ccccc4C=CC3C2(C#N)C#N)c1 (centres undefined)	nt	1.47
COC(=O)CSc1nnc(COc2cccc3ccccc23)o1	-0.35	nt
N#CC(C(=O)c1ccccc1Cl)=C1SCCS1	-0.3	-1.95
CNC(=O)c1ccccc1COC(=O)c1cccs1	0.2	0.55
COc1ccc(Nc2cc(Nc3ccccc3)ncn2)cc1	-1.35	-0.245
O=C(CN1C(=O)S/C(=C/c2ccccc2)C1=O)Nc1ccccc1Cl	0.8	0.065
CCOC(=O)C1CCN(/C=C2/C(=O)NC(=O)N(Cc3ccco3)C2=O)CC1	-0.15	-0.235

Retrieved one by one from above (three):
SMILES	AID504770	Ba CapD inh
CC12c3ccccc3C(c3ccccc31)C1C(=O)N(c3ccc(Cl)c(C(=O)O)c3)C(=O)C12 (centres undefined)	nt	-0.545
O=C(O)c1ccc2c(c1)sc1nc(-c3ccc(F)cc3)cn12	0.85	2.04
CC(C)Cn1c(O)c(C2=c3ccccc3=NC2=O)c2ccccc21	0.35	-1.55

(listing goes on)
SMILES	AID504770	Ba CapD inh
N#CC(C#N)=CNc1ccccc1N	-0.15	4.8
N#CC1=C2SCCN2C(=O)C(C#N)C12CCCCC2 (centres undefined)	-0.8	nt
COC(=O)CSc1n[nH]c(C)n1	1.15	nt
CCn1c(=S)sc2c(=O)n(-c3ccccc3)c(SC)nc21	nt	-0.26
COc1ccc(CNC(=O)c2cccc(N3CCCC3=O)c2)cc1	-0.4	0.195
COc1ccc(Cn2nnc3c(C)nnc(N4CCOCC4)c32)cc1	-0.35	0.445
CCOC(=O)c1c(NC(=O)c2ccco2)sc2c1CC(C)(C)NC2(C)C	-0.35	nt
S=c1[nH]c2ccc(Cl)cc2[nH]1	-0.55	nt
Cc1cc(OCC(=O)OC(C)C(N)=O)c(C(C)C)cc1Cl (centres undefined)	-0.5	nt
Cc1ccccc1Cn1c(=N)n(CCO)c2ccccc21	-0.6	-0.065
CCNC(=O)Oc1cccnc1CN(C)c1ccc(OC)cc1	nt	-0.05
CCSc1nc2c(c(=O)n1CC)SC(C)C2 (centres undefined)	0	-0.555
Cc1cc2nc(Oc3ccc(S(=O)(=O)N4CCOCC4)cc3)c3ccccc3n2n1	-0.1	nt
Cc1ccc(S(=O)(=O)N(CC(O)CN(CC(C)C)CC(C)C)c2cccc3ccccc23)cc1 (centres undefined)	nt	-0.33
NC(=O)C1CCN(CC(=O)NC(c2ccccc2)c2ccccc2)CC1	0.85	nt
CNc1cnn(C23CC4CC(CC(CC(=O)O)(C4)C2)C3)c(=O)c1Cl	-0.5	-1.95
CC(C)CCNC(=O)Cc1cccs1	-0.75	0.355
O=C(Cc1csc(Nc2nc(=S)[nH]c3ccccc23)n1)N1CCN(c2cccc(Cl)c2)CC1	0.25	2.2
COc1cc(OC)nc(NC(=O)COC(=O)c2ccc(S(=O)(=O)Nc3ccc(C)cc3)cc2)n1	0.3	nt
COc1ccccc1-c1cc2nc(C)cc(C)n2n1	0.25	2.13
COc1cc(Br)cc(C=Nc2cc(C)on2)c1O	-0.95	-2.13
COc1cc(/C=C2/S/C(=N/S(=O)(=O)c3ccc(C)cc3)NC2=O)cc(OC)c1OC	nt	2.08
CCN(C(=O)c1ccco1)c1nnc(Cn2nnc3ccccc32)s1	-0.6	nt
Cc1cc(NCc2ccccc2)c2nncn2n1	-0.75	nt
COC(=O)CSC(=O)Nc1ccc(Cn2cc(C(F)(F)F)ccc2=O)cc1	nt	-0.915
O=C1C2C3c4ccccc4C(c4ccccc43)C2C(=O)N1Cc1ccc(F)cc1 (centres undefined)	nt	-0.535
N#Cc1cnc(N2CCCCC2)[nH]c1=O	-0.4	nt
Cc1ccc(-n2nnc3c(=O)n(CC(=O)N4CC(C)OC(C)C4)cnc32)cc1Cl (centres undefined)	-1.1	nt
Cc1ccc(CN2CCc3[nH]c(=O)[nH]c(=O)c3C2)cc1	0.6	1.98
COCCCn1cnnc1SC(C)C(=O)Nc1ccc(S(=O)(=O)N2CCOCC2)cc1 (centres undefined)	0.5	nt
Cc1ccc2c(c1)c(-c1ccccc1)nc1nnnn12	-0.65	nt
O=C(CSc1nnnn1C1CC1)N(Cc1ccccc1)Cc1ccccc1	-0.25	nt
O=C(O)CCNC(=O)Nc1ccccc1	-0.15	0.37
Cc1ccc(N2NC(=O)CC2=O)cc1C	-0.45	-0.235
CN1C(=O)N(C)C2(c3ccccc3)N(C)C(=O)NC12c1ccccc1 (centres undefined)	nt	-0.23
Cc1nc2ccccc2n1C/C=C/c1ccccc1	-0.85	0.785
Cc1ccccc1Nc1nn2c(=O)c3ccc(C(=O)N4CCc5ccccc5C4)cc3nc2s1	0.8	2.69
Cc1cc2ccccc2n1CCNS(C)(=O)=O	0	0.08
CCOC(=O)C1=C(C)N=c2s/c(=C/c3ccc(N(CC)CC)o3)c(=O)n2C1c1ccc(N(C)C)cc1 (centres undefined)	nt	-0.505
Cc1ccc(S(=O)(=O)N(C)c2c(C)ccc(S(=O)(=O)n3nc(C)cc3C)c2C)cc1	0.2	nt
COc1cc(Br)c(C2C(C(=O)OCc3ccccc3)=C(C)NC3=C2C(=O)CCC3)cc1OC (centres undefined)	nt	31.1
CN1C(=O)C(C(=O)c2ccccc2)C2CC1(C)Oc1ccccc12 (centres undefined)	nt	-0.215
COc1ccccc1NC(=O)C1c2ccccc2Oc2ccccc21	1.35	-0.525
C=CCN(CC=C)C(=O)Cc1ccc(Br)cc1	-0.75	0.435
COc1cc(C(=O)OCC(=O)N2CCOCC2)ccc1OCC(=O)Nc1ccc(F)cc1	-0.25	nt
CN(C)C(=S)SSC(=S)N(C)C	-0.85	-1.6
Cn1c(=O)c2c(nc(N3CCOCC3)n2CC(=O)C23CC4CC(CC(C4)C2)C3)n(C)c1=O	nt	-0.415
S=c1[nH]nc2n1CCCN2	0.2	-0.615

Single records, as listed above. Screens in order: AID504770, Ba CapD inh
CN(C)C(=S)SSC(=S)N(C)C is listed with -0.85, -1.6
COc1cc(C(=O)OCC(=O)N2CCOCC2)ccc1OCC(=O)Nc1ccc(F)cc1 is listed with -0.25, nt
S=c1[nH]nc2n1CCCN2 is listed with 0.2, -0.615
CCOC(=O)C1=C(C)N=c2s/c(=C/c3ccc(N(CC)CC)o3)c(=O)n2C1c1ccc(N(C)C)cc1 (centres undefined) is listed with nt, -0.505
Cn1c(=O)c2c(nc(N3CCOCC3)n2CC(=O)C23CC4CC(CC(C4)C2)C3)n(C)c1=O is listed with nt, -0.415

The list continues.
SMILES	AID504770	Ba CapD inh
COc1ccc(NC(=O)CC2=C(c3ccccc3)CCC2=O)cc1	-0.1	-0.82
Cc1ccc(C)c(N2CCN(c3ncnc4c3cnn4-c3ccccc3)CC2)c1	nt	0.115
CCc1nnc(SCC(=O)NCc2ccc(C)cc2)c2cc3sccc3n12	-1.35	-1.11
CCOc1cc(C2C(C(=O)OCCOC(C)C)=C(C)NC3=C2C(=O)CC(c2cccs2)C3)cc([N+](=O)[O-])c1O (centres undefined)	nt	-0.545
COc1ccc(C2SCC(=O)N2c2c(C)n(C)n(-c3ccccc3)c2=O)cc1OC (centres undefined)	nt	0.04
Cc1cccc(N(C)C(=O)Cc2noc3ccccc23)c1	0.05	-0.935
COc1ccc(-c2c(C)oc3cc(O)ccc3c2=O)cc1	0.2	24.2
CCC(C)c1ccc(OCCOc2ccc(-c3nc4sc5c(c4c(=O)[nH]3)CCCC5)cc2OC)cc1 (centres undefined)	nt	0.24
O=C(OCC(=O)N1CCCC1)C1CCN(S(=O)(=O)c2cccs2)CC1	-0.2	nt
Cc1nc(CSc2nnc3scc(-c4ccccc4)n23)cs1	1.25	-0.04
COc1ccc(C2NC(=O)C(C#N)=C(S)N2c2ccccc2)cc1OC (centres undefined)	-0.4	-1.16
Cc1ccc(NC(=O)CNCc2ccco2)cc1Cl	-1.45	nt
CC(C)c1cccc(C(C)C)c1OCCCN1CCOCC1	0.4	0.58
CCOC(=O)COn1c(=O)c(-c2ccccc2)[n+]([O-])c2ccccc21	nt	-0.27
O=S(=O)(NCC1CCN(S(=O)(=O)c2ccccc2)CC1)c1cccs1	-0.15	-0.03
NNC(=O)c1csc(N2CCOCC2)n1	-0.25	nt
CC(C)(C)C(=O)Nc1nc(C2CCCN2S(=O)(=O)c2ccc(Cl)cc2)cs1 (centres undefined)	nt	-0.45
Cc1sc(-c2ccc(Cl)cc2)nc1CC(=O)NC(Cc1ccccc1)C(=O)OCc1ccccc1 (centres undefined)	nt	3.6
Cc1c([N+](=O)[O-])c([N+](=O)[O-])nn1CC(=O)Nc1cc(Oc2cccnc2)cc([N+](=O)[O-])c1	nt	-0.16
CNC(=O)c1cc(Cl)ccc1I	-0.8	0.345
CNC(=O)c1c(-c2ccccc2)c2cc(OC)ccc2n1CCN(C)C	-1.1	1.82
Cn1cc(-c2ccccc2C(N)=O)c(=O)c2ccccc21	nt	2.7
CCCCCCCc1c(O)c2cccc3c2n(c1=O)CCC3	-0.25	3.58
COc1ccc(-c2cc(N)n(C)n2)cc1	-1.1	nt
CS(=O)(=O)c1ncc(Cl)c(C(=O)Nc2cccc(Cl)c2)n1	-0.95	-0.315
Cc1c(CSc2nnc(C3CC3)n2-c2ccccc2)noc1-c1ccc(F)cc1	1.5	nt
Nc1cccc(-c2nn(-c3ccccc3)cc2CCC(=O)O)c1	1.4	4.43
CCOC(=O)c1c(CN(CC)CC)n(-c2ccccc2)c2ccc(O)cc12	0.15	10.3
O=C(O)CSCC(=O)N1CCCN(c2nc3ccc(Cl)cc3s2)CC1	1.05	1.2
Cc1ccc2cc(CCNC(=O)C(C)C)c(=O)[nH]c2c1	-1.05	2.7
O=C(C1COc2cc(S(=O)(=O)Nc3ccccc3)ccc2O1)N1CCCCC1 (centres undefined)	-1.95	-0.72
CCOC(=O)C1CCN(C(=O)c2ccc3c(c2)S(=O)(=O)c2ccccc2C3=O)CC1	-1	nt
O=C1NC(=O)N(c2ccccc2)C(=O)/C1=C/c1ccccc1	2.1	-0.015
O=C(CC1S/C(=N\N=C2CCCCC2)NC1=O)Nc1ccc(F)cc1 (centres undefined)	-0.3	nt
Oc1ccccc1C=Nc1cccc(N=Cc2ccccc2O)c1	0.1	-0.07
Cc1[nH]c(=S)sc1CC(=O)N(C)Cc1ccccc1Cl	0.6	nt
Cc1ccc(N2CC(=O)N(N)CC2=O)cc1	2.8	-0.135
CCOC(=O)C1=C(O)/C(=C/c2ccc(N(C)C)cc2)SC1=Nc1ccc(OC)cc1	nt	0.115
O=C(CCc1ccccc1)NN1CCOCC1	1.65	0.36
